Screens (PubChem BioAssay)
LANA-nucl inh: inhibitors of KSHV LANA-nucleosome binding, primary screen, biochemical, fluorescence polarization, FITC-LANA1-23, chicken nucleosomes; FITC-LANA1-23 / chicken nucleosome fluorescence polarization; stronger effect = lower value; z-score (concentration not given with the values); 51,000 tested, 0.3% active;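 active = both repeat wells score below -2 in polarization z-score versus plate sample wells, excluding overly bright wells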;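 also: 100 nL library stock added to about 30 µL; numbers are from one replicate; some results filed as inactive read as strong as hits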
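Material: Purified chicken nucleosomes with FITC-labelled LANA N-terminal peptide (1-23) | Reagent: 50 nM FITC-LANA1-23 probe | Medium: TEN-BT buffer, pH 7.5 | Times: 10–45 min incubation at room temperature | Detection: Fluorescence polarization | Replication: Duplicates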
BasE inh: BasE siderophore enzyme inhibitors, primary screen, biochemical, Acinetobacter baumannii ATCC 17978, fluorescence polarization; AID 485350, 2010; 84,000 tested, 0.1% active; inhibition, % (test concentration not listed); purified BasE, fluorescence polarization binding displacement;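 active = both replicates above 25% with normal brightness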;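 also: 0% = negative plate control signal and 100% = positive plate control signal; stock transfer was 100 nL into about 30 µL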
Numbers without * were called inactive; . = no result given; & = joins results of further samples. An excerpt (hit frequency here may not be typical).

SMILES | LANA-nucl inh | BasE inh
Nc1nc(COc2ccc3ccccc3c2)cs1 | -0.854 | 3.8
CC(C)CNC(=O)[C@@H]1CCCN1C(=O)c1cccs1 | . | 2.6
O=S1(=O)N=C(N2CCN(S(=O)(=O)c3cccs3)CC2)c2ccccc21 | . | -2.2
O=C(CCCn1c(=O)oc2ccccc21)NCCN1C(=O)S/C(=C\c2ccc(F)cc2)C1=O | . | 0.7
CCC(C)C(N)C(=O)N1CCOCCN(C(=O)C(N)C(C)CC)CCOCC1 (stereo not given) | -0.35 | -0.7
NS(=O)(=O)c1ccc(Nc2nc(-c3cccnc3)cs2)cc1 | -0.298 | 6.0
CC(C)(CNC(=O)CSc1ccc(F)cc1)N1CCOCC1 | . | 0.2
COc1ccc(OC)c(NC(=O)c2c(NC(=O)CNCc3ccco3)sc3c2CCC3)c1 | 0.241 | -0.9
COc1ccc(S(=O)(=O)N(C)CCc2ccc(OC)c(OC)c2)cc1 | . | 2.6
O=C(CSc1nnc(-c2ccc(F)cc2)o1)N(Cc1nnc(-c2ccc(Cl)cc2)o1)C1CC1 | . | -0.2
O=C(c1cccc(F)c1)c1ccc2c(c1)CCCO2 | -0.006 | -0.5
CCN(CC)S(=O)(=O)c1ccc(C(=O)Nc2cc(C)c3c(=O)oc4ccccc4c3n2)cc1 | -0.0285 | -1.6
Cc1ccc(C(=O)OCc2c(C)noc2C)c(C)c1 | . | -1.9
CC12CCC(C(=O)O)(C/C1=N\N)C2(C)C (stereo not given) | -0.531 | -2.5
O=c1[nH]c2cc(Br)cnc2[nH]1 | -1.84 | 7.1
CCOC(=O)c1cc2c(=O)n3cccc(C)c3nc2n(C2CCCC2)c1=N | -1.63 | -11.4
CN1/C(=C\C(=O)CSc2nc(N)cc(=O)[nH]2)C(C)(C)c2ccccc21 | . | 1.2
COc1cc(OC)c(NC(=O)CS(=O)(=O)Cc2nc(-c3ccc(C)cc3)oc2C)cc1Cl | -0.209 | 0.8
O=C(OCC(=O)N1CCCCC1)c1n[nH]c2ccccc12 | . | 1.9
CCCOc1ccccc1/C=C1\SC(N2CCN(C(C)=O)CC2)=NC1=O | -0.167 | 0.9
COc1ccc(-n2c(=S)n(CN3CC(C)OC(C)C3)c3ccccc32)cc1 (stereo not given) | . | -0.9
CCCC1=NN2C(=N)/C(=C/c3ccc(OC(=O)c4cccs4)c(OC)c3)C(=O)N=C2S1 | 0.917 | 0.1
COc1ccc2nc(NC(=O)C(F)F)sc2c1 | . | -1.2
CC(=O)Nc1ccc(NC(=O)c2ccc(CS(C)(=O)=O)cc2)cc1 | . | -2.1
N#Cc1cccnc1N1CCCN(C(=O)Nc2ccccc2)CC1 | 0.347 | -0.2

A few values from above.
Value for `O=C(CSc1nnc(-c2ccc(F)cc2)o1)N(Cc1nnc(-c2ccc(Cl)cc2)o1)C1CC1` in BasE inh: -0.2
Value for `COc1ccc2nc(NC(=O)C(F)F)sc2c1` in BasE inh: -1.2

The listing picks up, starting 4 compounds before the break.
SMILES | LANA-nucl inh | BasE inh
CCCC1=NN2C(=N)/C(=C/c3ccc(OC(=O)c4cccs4)c(OC)c3)C(=O)N=C2S1 | 0.917 | 0.1
COc1ccc2nc(NC(=O)C(F)F)sc2c1 | . | -1.2
CC(=O)Nc1ccc(NC(=O)c2ccc(CS(C)(=O)=O)cc2)cc1 | . | -2.1
N#Cc1cccnc1N1CCCN(C(=O)Nc2ccccc2)CC1 | 0.347 | -0.2
COC(=O)c1ccc(COC(=O)Cn2c(C)csc2=O)o1 | . | 2.7
CCOC(=O)c1cc(CSc2nc3ncccc3[nH]2)on1 | 0.462 | 8.4
O=C(Cc1c(Cl)cccc1Cl)N1CCN(S(=O)(=O)c2cccs2)CC1 | . | 1.7
COc1ccc(N2CCN(C(=O)COC(=O)c3cc[n+]([O-])cc3)CC2)cc1 | . | 1.0
CC1=C(/C=C/C(C)=C/C=C/C(C)=C/C(=O)O)C(C)(C)CCC1 | -0.367&-0.52&-0.556&0&-0.4 | -3.1&-0.7&1.8
CS(=O)(=O)N(CC(=O)Nc1ccc(S(=O)(=O)N2CCCCC2)cc1)c1ccccc1F | -1.04 | -2.6
CC1CN(S(=O)(=O)c2c[nH]c(=O)[nH]c2=O)CC(C)O1 (stereo not given) | -0.27 | 3.6
CCOC(=O)c1sc(=Nc2ccccc2)n(Cc2ccccc2)c1C | . | 4.2
CCCN1C(=S)NS(=O)(=O)c2ccccc21 | -0.743 | 1.0
CC(C)(C)NC(=O)c1c(F)cccc1F | 2.76 | 2.0
Cc1c(Nc2ncnc3sc4c(c23)CCCC4)c(=O)n(-c2ccccc2)n1C | -0.385 | -2.5
CN1C=CC=C/C1=C(/C#N)C(=O)NC1CCCCC1 | . | 0.2
CCC1Cc2c(nc3c4c(nc(N5CCOCC5)c(C#N)c24)NC2(CCCCC2)N3)O1 (stereo not given) | . | -1.7
CCOC(=O)c1cnc(SC)nc1-c1ccccc1 | 1.51 | -4.0
CN1CCCN(C(=O)c2ccc(S(=O)(=O)N3CCCCC3)cc2)c2nc3ccccc3nc21 | . | 2.9
OC(CNCC1COc2ccccc2O1)COC1CCCc2ccccc21 (stereo not given) | . | 0.1
O=C(COC(=O)c1c2c(nc3ccccc13)CCC2)Nc1ccc2c(c1)OCCO2 | . | 0.3
c1ccc(-c2nc(NN3CCCCC3)nc3ccccc23)cc1 | . | 2.5
CC1(C)C(=O)OC2(c3ccc(Cl)cc3)C1OC(=O)C2(C)C (stereo not given) | -0.62 | 2.1
OCC1CCCN(c2ncc(C(F)(F)F)cc2Cl)C1 (stereo not given) | . | 1.9
CC(=O)Oc1ccccc1C(=O)NCCC(C)C | 0.219 | 1.4
Cc1cc(NC(=O)CCOc2ccc(F)cc2)no1 | . | 1.7
O=C(Cc1cccs1)N1c2ccccc2Sc2ccccc21 | . | 2.2
O=C(O)C1OCOc2ccccc21 (stereo not given) | . | 0.9
CCNC(=O)CCOc1cccc(C)c1 | . | -2.2

Next part:
SMILES | LANA-nucl inh | BasE inh
O=C(OCn1nnc2ccccc2c1=O)c1cccnc1 | . | 0.9
Cc1ccc2nc(NC(=O)C(NS(=O)(=O)c3cccc4nsnc34)C(C)C)sc2c1 (stereo not given) | -0.829 | 1.8
COC(=O)c1cc(C)cc(=O)o1 | . | 1.2
CCn1cnc2sc3c(c2c1=O)CCCC3 | -0.323 | 0.5
CC1CCN(c2nc3c(c(=O)[nH]2)CCN(Cc2ccccc2)C3)CC1 | -0.302 | 3.0
Cc1noc(C)c1C(=O)OCC(=O)Nc1cc(C(F)(F)F)ccc1N1CCOCC1 | . | -0.7
O=C(Nc1ccccc1)N1CC=C(c2ccc(F)cc2)CC1 | 0.659 | 1.2
CC(C(=O)Nc1ccc(F)cc1)C1SC(=O)NC1=O (stereo not given) | -0.623 | 2.0
Cc1nn(CC(=O)NC(C)(C)C)c(=O)c2ccccc12 | 0.705 | -0.6
Cn1c(CSc2nc(N)cc(N)n2)n[nH]c1=S | -1.17 | 1.9
CCN(CC)C/C=C/c1c(F)c(F)c(OC)c(F)c1F | -0.477 | 2.0
CS(=O)(=O)c1ncc2c(n1)c(=O)c(C#N)c1[nH]c3ccccc3c(=O)n12 | . | -5.4
COc1ccc(OCC2CN=C(Nc3ccc(C)cc3)S2)cc1 (stereo not given) | . | 1.7
CCC(=O)NC1CC(=O)N(c2cccc(OC)c2)C1 (stereo not given) | 0.461 | 3.2
CC1CCCC(N2CC(C(=O)O)CC2=O)C1C (stereo not given) | . | -2.1
CCOc1ccc(-c2csc3ncn(CC(N)=O)c(=O)c23)cc1 | -0.263 | 0.7
CN(C)c1ccc(C2Nc3sc4c(c3C(=O)N2C)CCCC4)cc1 (stereo not given) | . | -0.3
CC(C)(C)c1ccn(CC(=O)c2ccc(Cl)cc2)n1 | -1.15 | .
COCCn1c(C)c(C(=O)O)sc1=S | -2.25 | 1.7
COc1ccc(-c2ccc(N)[n+](CCCC(=O)O)n2)cc1 | -0.274 | -2.9
CCCCNc1nc2ccccc2n1CC(=O)N1CCc2ccccc21 | . | 1.5
COc1ccc(NC(Cc2ccccc2)c2ccco2)cc1 (stereo not given) | -0.232 | 0.2
CCOc1nc(Nc2ccccc2)nc(OCC)n1 | -0.568 | 1.8
O=S(=O)(Nc1ccc(-c2nnc3n2CCCCC3)cc1)c1ccc(Br)cc1 | . | 1.3
O=C(NCc1ccc2c(c1)OCO2)c1ccc2c(=O)n(CCC3=CCCCC3)c(=O)[nH]c2c1 | -0.924 | 0.0

The list goes on.
SMILES | LANA-nucl inh | BasE inh
NC(=O)COC(=O)/C=C/c1ccc2ccccc2n1 | . | -0.8
CCOC(=O)c1cnc2ccc(C(=O)OC)cc2c1NCc1ccco1 | 0.286 | 4.3
COc1ccc(C(=O)COc2ncnc3cc(Cl)ccc23)cc1 | -0.929 | 2.1
CCCC(=O)N1CCCC(c2nc3c(nnn3Cc3ccccc3)c(=O)[nH]2)C1 (stereo not given) | -0.269 | -0.7
COC(=O)c1sccc1S(=O)(=O)Nc1ccc2c(c1)OCCO2 | . | 2.5
CN(C)/C=N/c1nnc(SCC(=O)Nc2cc(Cl)cc(Cl)c2)s1 | . | 1.9
COc1ccc(NC(=O)NCc2ccccc2)cc1 | 0.0215 | 3.5
COC(=O)c1cn(C(=O)CCc2ccccc2)c2ccccc12 | . | 0.5
CSc1nc2cc(C)nn2c(-c2ccco2)c1C#N | . | 1.1
CCC(C)NC(=O)c1c(N)n(/N=C/c2ccc(OC)c(OC)c2)c2nc3ccccc3nc12 (stereo not given) | -0.951 | .
CCOc1cc(/C=C2\SC(=S)N(CC)C2=O)cc(Cl)c1O | 1.86 | -29.0
CCSc1nc(NC(C)C)nc(N2CCOCC2)n1 | 2.6 | -3.2
COC(=O)COc1cccc(NC(=O)Cc2cccs2)c1 | -0.379 | -0.1
CCOC(=O)C1CCC(CNC(=O)N2CC(CC)Oc3ccccc32)CC1 (stereo not given) | -0.343 | 0.1
CCc1nc(SCc2ccccc2)[nH]c(=O)c1C | -0.0995 | 2.2
C[C@]12CCC(=O)C=C1C=C[C@@H]1[C@@H]2CC[C@@]2(C)[C@H]1CC[C@@]21CCC(=O)O1 | 0.291 | .
Cn1cccc1CC(=O)N/N=C1/CCCc2ccccc21 | . | -0.8
CC(C)C1Oc2ccccc2N(CC(=O)N(C)C2CCCCC2)C1=O (stereo not given) | 0.371 | -1.2
CCCCc1ccc(NC(=O)/C=N/O)cc1 | . | 2.0
CCNC(=O)C1CCN(S(=O)(=O)c2ccc(C)cc2)CC1 | -1.12 | 0.9
COc1cccc(C2Nc3ccccc3C(=O)N2NS(=O)(=O)c2ccc(C)cc2)c1O (stereo not given) | 0.66 | 1.9
COc1cc(/C=N/OCC(=O)N2CCN(C(C)=O)CC2)ccc1OC(F)F | . | -0.7
CC(C)(C)C(=O)/C=C1\SCC(=O)N1CC(=O)Nc1ccccc1C#N | . | -10.5
COc1cc2nc(CN3CCCC3c3cccs3)[nH]c(=O)c2cc1OC (stereo not given) | . | 1.2
O=C(CN1CCC(n2nnc3ccccc32)CC1)Nc1cccc(F)c1 | 0.714 | -0.7

Remaining list, next part.
SMILES | LANA-nucl inh | BasE inh
CC(=O)OCC(=O)[C@@]1(O)CC[C@H]2[C@@H]3CCC4=CC(=O)CC[C@]4(C)[C@H]3[C@@H](O)C[C@@]21C | 0.516 | .
O=C(Nc1ccc(CCC(=O)N2CCCC2)cc1)c1cc2ccccc2o1 | 1.31 | -5.2
c1cncc(-c2nc(NCC3CCCO3)c3ccccc3n2)c1 (stereo not given) | . | -2.5
C=CCn1c(C)cc(-c2csc(CC#N)n2)c1C | . | 3.3
Cn1cnc2c(NCc3ccccc3)nc(NCCO)nc21 | 1.6 | 0.9
Cc1ccc(C(=O)CSc2nccn2-c2ccccc2)cc1 | -0.613 | .
CCN1CC2=C(OC(N)=C(C#N)C2c2cccs2)/C(=C\c2cccs2)C1 (stereo not given) | 0.269 | -13.2
CCOC(=O)c1cnn(C(C)(C)C)c1C1CCN(C(=O)OC(C)(C)C)CC1 | 0.815 | 2.2
Cc1ccc(NC(=O)NCCCN2CCOCC2)cc1 | -1.3 | -0.1
O=C(CNc1ccccc1C(=O)NCc1ccco1)Nc1ccccc1Cl | . | -0.6
CC1Cn2c(nnc2-c2cc3ccccc3cc2O)S1 (stereo not given) | 0.214 | -1.6
CCc1ccccc1S(=O)(=O)Cc1ccc(C(=O)NC(C)C)o1 | 0.403 | -2.4
Cc1ccc(N2CCN(c3ccc(C)cc3)C2c2ccncc2)cc1 | . | -1.7
O=C(CSc1ccccc1C(=O)NCCCN1CCCC1=O)NCc1ccco1 | . | 1.9
COC(=O)c1csc(S(=O)(=O)NCc2nn(-c3ccccc3)nc2C)c1OC | 2.8 | -4.6
O=C(NC1CC1)c1ccc2ccccc2n1 | . | -1.8
COc1cccc(NC(=O)CSc2cn(CC(=O)N3CCOCC3)c3ccccc23)c1 | -1.08 | 1.5
Cc1cn2ccccc2c1P(=Nc1ccccc1)(N1CCOCC1)N1CCOCC1 | . | -1.1
O=C(Cn1cnc2ccccc2c1=O)N1CCc2ccccc21 | . | -5.0
C/C(=N\NC(=O)CCc1ccccc1)c1cccc(N)c1 | -0.866 | 1.9
CSC1=NC2(CCCCC2)C2=C(CCCC2)N1 | . | -1.4
O=C(O)C1CCC(=O)N1C(=O)/C=C/c1ccccc1 (stereo not given) | -0.27 | -0.2
C/C(N)=C(/C#N)C(NC(=O)C1CCCCC1)(C(F)(F)F)C(F)(F)F | 0.088 | 1.8
